Bioassay records (PubChem)
A1 apoptosis 2 – A1 inhibition read as caspase activation; 24,000 tested, under 10 active; MEF A1-2A-BIM cells, caspase-Glo luminescence, 3 h; percent of clofoctol response, DMSO zero; caspase activation, % (test concentration not listed); AID 2465; in the data active = caspase activation above about 5.9%;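 also: wells of about 30 µL received 50 nL stock; the first replicate is given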
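Test system – A1-2A-BIM-expressing MEF cells · Input – 2500 cells/well · Medium – RPMI-1640 growth medium with 10% FBS · Compound dosing – 50 nL pinned compound · Timing – 3 h compound exposure at 37 °C · Technique – Caspase-Glo luminescence (DEVD substrate) · Evaluation – Caspase-3/7 activity from luminescence increase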
Numbers without * were called inactive; & = joins results of further samples. The list is partial; rates above refer to the full screens.

SMILES	A1 apoptosis 2
C[C@@H]1CN([C@H](C)CO)C(=O)c2cc(NC(=O)Cc3cn(C)c4ccccc34)ccc2O[C@@H]1CN(C)CC1CC1	2.0
C[C@@H]1CCCCO[C@H](CN(C)S(=O)(=O)c2ccccc2)[C@H](C)CN([C@@H](C)CO)C(=O)c2cc(NC(=O)Nc3cccc4ccccc34)ccc2O1	1.0
Cc1cc(C(=O)Nc2cccc3c2O[C@H](CN(C)C(=O)NC2CCCCC2)[C@H](C)CN([C@H](C)CO)C3=O)n(C)n1	1.7
CNC[C@H]1Oc2ccc(N(C)C)cc2C(=O)N([C@@H](C)CO)C[C@@H]1C	0.3
C[C@@H]1CN([C@@H](C)CO)C(=O)c2cc(NC(=O)Cc3ccccc3)ccc2O[C@@H](C)CCCCO[C@@H]1CN(C)C(=O)Nc1ccccc1	-1.4
COc1ccc(CN(C)C[C@H]2Oc3ccc(NC(=O)Cn4cnnn4)cc3CC(=O)N([C@H](C)CO)C[C@@H]2C)cc1	-0.2
C[C@H]1CN([C@@H](C)CO)C(=O)Cc2cc(NC(=O)Nc3ccc(C(F)(F)F)cc3)ccc2O[C@@H]1CN(C)S(=O)(=O)c1cn(C)cn1	0.3
C[C@H]1CN([C@@H](C)CO)C(=O)c2cccc(NC(=O)CCCCCC(=O)Nc3ccccc3N)c2O[C@@H]1CN(C)C(=O)Nc1cccc2ccccc12	0.5
Cc1noc(C)c1S(=O)(=O)Nc1ccc2c(c1)C(=O)N([C@H](C)CO)C[C@H](C)[C@H](CN(C)CC1CCCCC1)O2	0.5
C[C@H](CO)N1C[C@H](C)[C@H](CN(C)Cc2ccc(C(F)(F)F)cc2)Oc2c(NS(C)(=O)=O)cccc2C1=O	-2.6
C[C@H](CO)N1C[C@H](C)[C@H](CN(C)C(=O)Nc2ccc3c(c2)OCO3)Oc2ccc(NC(=O)Nc3ccc4c(c3)OCO4)cc2CC1=O	-0.9
C[C@@H]1CCCCO[C@H](CN(C)S(=O)(=O)c2cccs2)[C@H](C)CN([C@@H](C)CO)C(=O)c2cc(NS(=O)(=O)c3cn(C)cn3)ccc2O1	0.3
Cc1noc(C)c1S(=O)(=O)N(C)C[C@H]1Oc2ccc(NC(=O)Cc3cn(C)c4ccccc34)cc2CC(=O)N([C@@H](C)CO)C[C@@H]1C	-0.1
C[C@@H]1CCCCO[C@@H](CN(C)C(=O)Nc2ccccc2)[C@H](C)CN([C@@H](C)CO)C(=O)c2cc(NC(=O)C3CCCCC3)ccc2O1	0.9
C[C@@H]1CN([C@@H](C)CO)C(=O)c2cc(NS(=O)(=O)c3cccs3)ccc2O[C@@H](C)CCCCO[C@H]1CN(C)C(=O)CCCN(C)C	-1.4
C[C@@H]1CN([C@H](C)CO)C(=O)c2cc(NC(=O)Cc3cn(C)c4ccccc34)ccc2O[C@@H]1CN(C)Cc1ccc(C(=O)O)cc1	1.5
C[C@H]1CN([C@@H](C)CO)C(=O)c2cccc(NC(=O)Nc3ccc(C(F)(F)F)cc3)c2O[C@H]1CN(C)CC1CCCCC1	-0.2
C[C@H]1CN([C@@H](C)CO)C(=O)Cc2cc(NC(=O)Nc3ccc4c(c3)OCO4)ccc2O[C@@H]1CN(C)C	1.5
C[C@H](CO)N1C[C@H](C)[C@@H](CN(C)S(=O)(=O)c2ccc(Cl)cc2)Oc2ccc(NC(=O)Nc3ccccc3)cc2CC1=O	-0.3
O=C(O)C1=C[C@@H](c2ccc3c(c2)OCO3)C[C@@H](OCc2ccc(CO)cc2)O1	-0.2&0.5
C[C@H]1CCCCO[C@@H](CN(C)C)[C@@H](C)CN([C@@H](C)CO)C(=O)c2cc(NC(=O)Nc3cccc4ccccc34)ccc2O1	1.2
Cc1noc(C)c1NC(=O)N(C)C[C@@H]1OCCCC[C@H](C)Oc2ccc(NC(=O)NC3CCCCC3)cc2C(=O)N([C@@H](C)CO)C[C@H]1C	-0.1
Cc1cc(C(=O)Nc2cccc3c2O[C@@H](CN(C)C)[C@H](C)CN([C@H](C)CO)C3=O)n(C)n1	2.1
C[C@@H]1CN([C@H](C)CO)C(=O)c2cc(NC(=O)CCCCCC(=O)Nc3ccccc3N)ccc2O[C@@H](C)CCCCO[C@H]1CN(C)Cc1ccc(Cl)c(Cl)c1	0.0
C[C@@H]1CCCCO[C@@H](CN(C)C(=O)c2ccccc2)[C@@H](C)CN([C@@H](C)CO)C(=O)c2cc(NS(=O)(=O)c3cccs3)ccc2O1	0.3
COc1ccc(NC(=O)Nc2cccc3c2O[C@H](CN(C)C)[C@@H](C)CN([C@H](C)CO)C3=O)cc1	0.5
COc1ccc(S(=O)(=O)N(C)C[C@@H]2Oc3ccc(NC(=O)Nc4ccc5c(c4)OCO5)cc3CC(=O)N([C@@H](C)CO)C[C@@H]2C)cc1	-0.3
C[C@@H]1CN([C@@H](C)CO)C(=O)c2cccc(NS(=O)(=O)c3ccc(F)cc3)c2O[C@@H]1CN(C)C(=O)Nc1ccc(F)cc1	0.2
CC(C)NC(=O)Nc1cccc2c1O[C@@H](CN(C)Cc1ccc(C(F)(F)F)cc1)[C@H](C)CN([C@H](C)CO)C2=O	-0.9
CNC[C@H]1Oc2ccc(NC(=O)Nc3ccc(C(F)(F)F)cc3)cc2CC(=O)N([C@@H](C)CO)C[C@H]1C	-0.6
C[C@@H]1CN([C@H](C)CO)C(=O)Cc2cc(NC(=O)Cc3ccccc3)ccc2O[C@H]1CN(C)Cc1ccncc1	0.7
Cc1noc(C)c1NC(=O)N(C)C[C@H]1OCCCC[C@H](C)Oc2ccc(NS(=O)(=O)c3cn(C)cn3)cc2C(=O)N([C@@H](C)CO)C[C@@H]1C	-0.4
C[C@H]1CN([C@@H](C)CO)C(=O)Cc2cc(NC(=O)CCC(F)(F)F)ccc2O[C@@H]1CN(C)CC1CCCCC1	0.7
Cc1noc(C)c1NC(=O)N(C)C[C@@H]1OCc2cn(nn2)CCCC(=O)N([C@@H](C)CO)C[C@H]1C	0.4
C[C@@H]1CN([C@@H](C)CO)C(=O)c2cc(NC(=O)NC3CCCCC3)ccc2O[C@@H](C)CCCCO[C@@H]1CN(C)Cc1ccncc1	-0.7
COc1cc(/C=N/NC(=O)CCCCCC(=O)NO)ccc1O	-0.7
C[C@@H]1CN([C@H](C)CO)C(=O)c2cccc(NC(=O)C3CCOCC3)c2O[C@H]1CN(C)Cc1ccc(-c2ccccc2)cc1	0.2
CC(C)NC(=O)Nc1ccc2c(c1)C(=O)N([C@@H](C)CO)C[C@@H](C)[C@H](CN(C)C(=O)Nc1ccccc1)OCCCC[C@@H](C)O2	-0.2
C[C@H](CO)N1C[C@H](C)[C@H](CN(C)C(=O)Nc2ccc3c(c2)OCO3)Oc2ccc(NC(=O)CCN3CCOCC3)cc2C1=O	0.1
C[C@@H]1CN([C@@H](C)CO)C(=O)Cc2cc(NC(=O)Nc3ccc(F)cc3)ccc2O[C@H]1CN(C)C(=O)Nc1cccc2ccccc12	0.1

Not a retest: two of the compounds above.
SMILES	A1 apoptosis 2
C[C@@H]1CN([C@H](C)CO)C(=O)Cc2cc(NC(=O)Cc3ccccc3)ccc2O[C@H]1CN(C)Cc1ccncc1	0.7
Cc1noc(C)c1NC(=O)N(C)C[C@H]1OCCCC[C@H](C)Oc2ccc(NS(=O)(=O)c3cn(C)cn3)cc2C(=O)N([C@@H](C)CO)C[C@@H]1C	-0.4

(list continues)
SMILES	A1 apoptosis 2
COc1ccc(NC(=O)Nc2cccc3c2O[C@H](CN(C)S(=O)(=O)c2ccc(OC)cc2)[C@H](C)CN([C@@H](C)CO)C3=O)cc1	-1.4
CC(C)(C)OC(=O)NC1(/C=N/NC(=O)CCCCCCC(=O)NO)CCCC1	0.5
C[C@H](CO)N1C[C@H](C)[C@H](CN(C)Cc2ccccc2)Oc2c(NC(=O)Nc3ccc(C(F)(F)F)cc3)cccc2C1=O	0.0
COc1ccc(S(=O)(=O)N(C)C[C@H]2Oc3ccc(NC(=O)C4CCCCC4)cc3CC(=O)N([C@@H](C)CO)C[C@H]2C)cc1	-1.7
C[C@H]1CN([C@@H](C)CO)C(=O)c2cc(NC(=O)CCC(F)(F)F)ccc2O[C@H]1CN(C)Cc1ccc(C(=O)Nc2ccccc2N)cc1	0.2
C[C@@H]1CN([C@@H](C)CO)C(=O)c2cc(NC(=O)Nc3ccccc3)ccc2O[C@H]1CN(C)Cc1ccc(Cl)c(Cl)c1	0.3
C[C@@H]1CCCCO[C@@H](CN(C)Cc2ccc3c(c2)OCO3)[C@H](C)CN([C@H](C)CO)C(=O)c2cc(NS(=O)(=O)c3ccc(F)cc3)ccc2O1	-1.2
C[C@H]1CN([C@@H](C)CO)C(=O)Cc2cc(NC(=O)C3CC3)ccc2O[C@@H]1CN(C)S(=O)(=O)c1cccs1	2.0
C[C@H](CO)N1C[C@H](C)[C@H](CN(C)CC2CC2)Oc2c(NC(=O)c3nc4ccccc4s3)cccc2C1=O	0.7
C[C@@H]1CN([C@H](C)CO)C(=O)Cc2cc(NC(=O)CCN3CCOCC3)ccc2O[C@H]1CN(C)Cc1ccc(Cl)c(Cl)c1	-0.5
C[C@@H]1CCCCO[C@H](CN(C)Cc2ccncc2)[C@H](C)CN([C@H](C)CO)C(=O)c2cc(NS(=O)(=O)c3ccccc3)ccc2O1	2.1
CC(C)NC(=O)N(C)C[C@H]1OCCCC[C@@H](C)Oc2ccc(NS(=O)(=O)c3ccccc3)cc2C(=O)N([C@@H](C)CO)C[C@H]1C	-0.3
COc1ccc(S(=O)(=O)Nc2ccc3c(c2)C(=O)N([C@@H](C)CO)C[C@@H](C)[C@@H](CN(C)S(=O)(=O)c2cn(C)cn2)OCCCC[C@@H](C)O3)cc1	-0.2
C[C@@H]1CCCCO[C@@H](CN(C)Cc2ccc3c(c2)OCO3)[C@@H](C)CN([C@H](C)CO)C(=O)c2cc(NC(=O)NC3CCCCC3)ccc2O1	-0.6
Cc1cc(C(=O)Nc2cccc3c2O[C@@H](CN(C)S(=O)(=O)c2ccc(F)cc2)[C@@H](C)CN([C@@H](C)CO)C3=O)n(C)n1	-0.5
Cc1noc(C)c1NC(=O)Nc1cccc2c1O[C@H](CN(C)Cc1ccc(Oc3ccccc3)cc1)[C@H](C)CN([C@H](C)CO)C2=O	-0.6
COc1ccc(NC(=O)Nc2cccc3c2O[C@H](CN(C)Cc2ccc(Oc4ccccc4)cc2)[C@@H](C)CN([C@@H](C)CO)C3=O)cc1	-2.0
C[C@H]1CCCCO[C@H](CN(C)C)[C@@H](C)CN([C@@H](C)CO)C(=O)c2cc(NS(C)(=O)=O)ccc2O1	-0.1
C[C@H]1CN([C@@H](C)CO)C(=O)c2cccc(NS(=O)(=O)c3ccc(F)cc3)c2O[C@@H]1CN(C)C(=O)Nc1ccccc1	-0.6
Cc1ccc(S(=O)(=O)N(C)C[C@H]2Oc3c(NC(=O)c4cnccn4)cccc3C(=O)N([C@H](C)CO)C[C@H]2C)cc1	-0.3

Reformatted: results already given
smiles | A1 apoptosis 2
COc1ccc(S(=O)(=O)Nc2ccc3c(c2)C(=O)N([C@@H](C)CO)C[C@@H](C)[C@@H](CN(C)S(=O)(=O)c2cn(C)cn2)OCCCC[C@@H](C)O3)cc1 | -0.2
C[C@@H]1CCCCO[C@@H](CN(C)Cc2ccc3c(c2)OCO3)[C@@H](C)CN([C@H](C)CO)C(=O)c2cc(NC(=O)NC3CCCCC3)ccc2O1 | -0.6
Cc1cc(C(=O)Nc2cccc3c2O[C@@H](CN(C)S(=O)(=O)c2ccc(F)cc2)[C@@H](C)CN([C@@H](C)CO)C3=O)n(C)n1 | -0.5
Cc1noc(C)c1NC(=O)Nc1cccc2c1O[C@H](CN(C)Cc1ccc(Oc3ccccc3)cc1)[C@H](C)CN([C@H](C)CO)C2=O | -0.6
COc1ccc(NC(=O)Nc2cccc3c2O[C@H](CN(C)Cc2ccc(Oc4ccccc4)cc2)[C@@H](C)CN([C@@H](C)CO)C3=O)cc1 | -2.0
C[C@H]1CCCCO[C@H](CN(C)C)[C@@H](C)CN([C@@H](C)CO)C(=O)c2cc(NS(C)(=O)=O)ccc2O1 | -0.1

Next section
SMILES	A1 apoptosis 2
C[C@@H]1CN([C@H](C)CO)C(=O)CCCn2nncc2CO[C@H]1CN(C)Cc1ccc(C(F)(F)F)cc1	1.6
Cc1noc(C)c1NC(=O)Nc1ccc2c(c1)CC(=O)N([C@H](C)CO)C[C@@H](C)[C@H](CN(C)S(=O)(=O)c1ccc(F)cc1)O2	-0.6
C[C@@H]1CN([C@@H](C)CO)C(=O)c2cc(NC(=O)CCC(F)(F)F)ccc2O[C@@H](C)CCCCO[C@H]1CN(C)C(=O)NC1CCCCC1	2.0
COc1ccc(S(=O)(=O)N(C)C[C@H]2Oc3ccc(NC(=O)Nc4cccc5ccccc45)cc3CC(=O)N([C@@H](C)CO)C[C@H]2C)cc1	0.6
C[C@@H]1CN([C@@H](C)CO)C(=O)c2cccc(NS(C)(=O)=O)c2O[C@H]1CN(C)C(=O)Nc1ccccc1	0.6
COc1ccc(S(=O)(=O)N(C)C[C@@H]2OCCCC[C@H](C)Oc3ccc(NC(=O)Nc4ccc(F)cc4)cc3C(=O)N([C@H](C)CO)C[C@@H]2C)cc1	-0.6
COc1ccc(S(=O)(=O)Nc2cccc3c2O[C@H](CN(C)C(=O)NC(C)C)[C@@H](C)CN([C@@H](C)CO)C3=O)cc1	-0.6
C[C@@H]1CN([C@H](C)CO)C(=O)Cc2cc(NC(=O)CCCN(C)C)ccc2O[C@H]1CN(C)Cc1ccc(Oc2ccccc2)cc1	0.0
COCCOC(=O)N1C(=O)[C@@]2(c3cc(C#Cc4ccc(OC)cc4)ccc31)[C@H](c1ccccc1OCCO)N1[C@H](c3ccccc3)[C@H](c3ccccc3)OC(=O)[C@H]1[C@@H]2C(=O)N1CCc2cc(OC)c(OC)cc2C1	-0.3
COc1ccc(S(=O)(=O)N(C)C[C@@H]2Oc3ccc(NC(=O)NC(C)C)cc3C(=O)N([C@@H](C)CO)C[C@H]2C)cc1	1.0
